Source: PubChem (Broad Institute)
NOMO-1 viab = STK33 inhibitor candidate reducing NOMO-1 cell viability | inhibition, % (concentration not given with the values) | 7.5% of 37,000 active | NOMO-1 AML viability, CellTiter-Glo luminescence, 72 h;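 active = most replicates above 80%; inconclusive = exactly half above 80%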;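 also: wells of about 30 µL received 25 nL stock; 0% = median of vehicle wells and 100% = reference inhibitor level; the first replicate is given; inactives centre near 10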
Active calls of the source: *; ? = inconclusive.

Start of the data: the first two entries, ahead of the listing:
SMILES | NOMO-1 viab
CC(C)NC(=O)Nc1cccc2c1O[C@H](CN(C)C(=O)NC(C)C)[C@H](C)CN([C@H](C)CO)C2=O | 6
O=C(O)COc1cccc(NC(=O)c2ccc(I)cc2)c1 | 11

The list itself, previewed entries included:
SMILES | NOMO-1 viab
CC(C)NC(=O)Nc1cccc2c1O[C@H](CN(C)C(=O)NC(C)C)[C@H](C)CN([C@H](C)CO)C2=O | 6
O=C(O)COc1cccc(NC(=O)c2ccc(I)cc2)c1 | 11
C[C@H](CO)N1C[C@H](C)[C@H](CN(C)C(=O)Nc2ccc(F)cc2)Oc2c(NC(=O)C3CCOCC3)cccc2C1=O | 14
Cc1cccc(C)c1NC(=O)CSc1nnnn1-c1ccc(I)cc1 | 19
C[C@H]1CN([C@@H](C)CO)C(=O)c2cccc(NS(=O)(=O)c3ccc(F)cc3)c2O[C@H]1CN(C)Cc1ccc(C(=O)Nc2ccccc2N)cc1 | 114*
C[C@H](CO)N1C[C@H](C)[C@@H](CN(C)C(=O)Nc2ccc(F)cc2)Oc2ccc(NC(=O)Nc3ccccc3)cc2C1=O | -2
COc1ccc(S(=O)(=O)Nc2ccc3c(c2)C(=O)N([C@H](C)CO)C[C@H](C)[C@@H](CN(C)C(=O)Nc2ccc(C(F)(F)F)cc2)OCCCC[C@@H](C)O3)cc1 | ?
Cc1noc(C)c1NC(=O)N(C)C[C@H]1Oc2ccc(NC(=O)Cn3cnnn3)cc2C(=O)N([C@@H](C)CO)C[C@@H]1C | -4
COc1cc(C#N)c2ccc3ccccc3c2c1 | 25
C[C@@H]1CN([C@H](C)CO)C(=O)c2cccc(NS(=O)(=O)c3ccc(Cl)cc3)c2O[C@@H]1CN(C)C(=O)Nc1ccccc1 | 17
O=C(CSc1nnnn1-c1ccc(O)cc1)Nc1ccc(N2CCOCC2)c(Cl)c1 | 18
Cc1nc(SCC(=O)Nc2cccc(C(=O)O)c2)[nH]c(=O)c1C | -8
C[C@@H]1CN([C@@H](C)CO)C(=O)c2cccc(N(C)C)c2O[C@@H]1CN(C)Cc1ccccc1 | 0
COc1ccc(S(=O)(=O)N(C)C[C@@H]2Oc3ccc(NC(=O)Nc4ccc5c(c4)OCO5)cc3C(=O)N([C@@H](C)CO)C[C@@H]2C)cc1 | 24
Cc1ccc(-n2c(N)cc(=O)nc2SCC(=O)Nc2cccc(C(F)(F)F)c2)cc1 | 27
C[C@@H]1CN([C@H](C)CO)C(=O)c2cc(NC(=O)C3CC3)ccc2O[C@H]1CN(C)S(=O)(=O)c1cn(C)cn1 | -12
C[C@H](CO)N1C[C@H](C)[C@H](CN(C)C(=O)Nc2ccc(C(F)(F)F)cc2)Oc2c(cccc2N(C)C)C1=O | 24
O=C(Oc1ccc(N(Cc2ccco2)C2=NS(=O)(=O)c3ccccc32)cc1)c1ccco1 | 14
C[C@@H]1CN([C@@H](C)CO)C(=O)c2cc(NS(=O)(=O)c3cccs3)ccc2O[C@@H]1CN(C)C | -10
Cc1noc(C)c1NC(=O)N(C)C[C@H]1Oc2ccc(NS(=O)(=O)c3c(C)noc3C)cc2CC(=O)N([C@H](C)CO)C[C@H]1C | 6
C[C@@H]1CN([C@@H](C)CO)C(=O)Cc2cc(NC(=O)Nc3ccc4c(c3)OCO4)ccc2O[C@@H]1CN(C)C | 16
COC(=O)c1ccccc1NC(=O)CN(c1ccc(Br)c(C)c1)S(C)(=O)=O | 9
Cc1ccc(S(=O)(=O)Nc2ccc3c(c2)C(=O)N([C@H](C)CO)C[C@@H](C)[C@@H](CN(C)C(=O)NC2CCCCC2)O3)cc1 | 1
O=C(/C=C/c1ccccc1)Nc1cc2c(ccc3ccccc32)oc1=O | -13
Cc1cc(N(CC(=O)Nc2cc(Cl)ccc2Cl)S(C)(=O)=O)ccc1Br | 5
CC(=O)c1ccc(NC(=O)Cn2cnc3ccccc3c2=O)cc1 | 5
COc1ccc(S(=O)(=O)N(C)C[C@@H]2Oc3ccc(NC(=O)NC4CCCCC4)cc3C(=O)N([C@@H](C)CO)C[C@H]2C)cc1 | -14
C[C@H](CO)N1C[C@H](C)[C@H](CN(C)S(C)(=O)=O)Oc2c(NS(=O)(=O)c3ccccc3)cccc2C1=O | -11
Cc1noc(C)c1NC(=O)N(C)C[C@H]1Oc2ccc(NC(=O)NC(C)C)cc2C(=O)N([C@@H](C)CO)C[C@H]1C | 7
CNC[C@@H]1Oc2ccc(NC(=O)CCN3CCOCC3)cc2C(=O)N([C@H](C)CO)C[C@H]1C | 11
C[C@H](CO)N1C[C@H](C)[C@H](CN(C)S(C)(=O)=O)Oc2ccc(NC(=O)Nc3cccc4ccccc34)cc2C1=O | 4
Cc1cc(C)c2nc(NC(=O)c3ccc(C#N)cc3)sc2c1 | 22
C[C@@H]1CN([C@H](C)CO)C(=O)c2cc(NC(=O)NC3CCCCC3)ccc2O[C@H]1CN(C)S(=O)(=O)c1ccc(Cl)cc1 | -9
COc1ccc(S(=O)(=O)Nc2ccc3c(c2)C(=O)N([C@H](C)CO)C[C@H](C)[C@@H](CN(C)Cc2ccc(Cl)c(Cl)c2)O3)cc1 | 51
Cc1noc(C)c1S(=O)(=O)Nc1ccc2c(c1)C(=O)N([C@H](C)CO)C[C@H](C)[C@@H](CN(C)C(=O)Nc1ccc(C(F)(F)F)cc1)OCCCC[C@@H](C)O2 | 115*
CNC[C@@H]1Oc2ccc(NC(=O)NC(C)C)cc2C(=O)N([C@H](C)CO)C[C@H]1C | 29
C[C@@H]1CC[C@]2(C(=O)O)CC[C@]3(C(=O)O)C(=CCC4[C@@]5(C)CC[C@H](O[C@@H]6O[C@@H](C)[C@H](O[C@@H]7O[C@H](CO)[C@@H](O)[C@H](O)[C@H]7O)[C@@H](O)[C@H]6O)C(C)(C)C5CC[C@]43C)C2[C@H]1C (some centres not stated) | 4
O=C(O)c1cccc(COc2ccc(CO)cc2Br)c1 | 6
Cc1cc(C(=O)Nc2cccc3c2O[C@@H](CN(C)C(=O)Nc2ccc(F)cc2)[C@H](C)CN([C@H](C)CO)C3=O)n(C)n1 | -10
C[C@@H]1CCCCO[C@@H](CN(C)CC2CC2)[C@@H](C)CN([C@H](C)CO)C(=O)c2cc(NC(=O)CCC(F)(F)F)ccc2O1 | -3
COC(=O)c1cc(OC)c(OC)cc1NC(=O)COc1cccc(C)c1C | 19
C[C@H]1CN([C@@H](C)CO)C(=O)Cc2cc(NS(=O)(=O)c3ccc(F)cc3)ccc2O[C@@H]1CN(C)S(=O)(=O)c1ccc(Cl)cc1 | -17
C[C@H]1CN([C@@H](C)CO)C(=O)Cc2cc(NC(=O)Nc3cccc4ccccc34)ccc2O[C@H]1CN(C)CC1CC1 | 27
COc1cc(NS(=O)(=O)c2ccc(NC(=O)c3csc(C)c3)cc2)nc(OC)n1 | 4
COC(=O)c1c(C)c(=O)[nH]c2ccccc12 | 32
C[C@H](CO)N1C[C@H](C)[C@H](CN(C)S(=O)(=O)c2cccs2)Oc2ccc(NS(=O)(=O)c3ccccc3)cc2C1=O | 22
COc1ccc(CN(C)C[C@H]2Oc3ccc(NS(=O)(=O)c4ccc(F)cc4)cc3CC(=O)N([C@@H](C)CO)C[C@@H]2C)cc1 | 21
O=C(CC1NCCNC1=O)Nc1cccc(Cl)c1Cl (configuration not stated) | 46
C[C@@H]1CN([C@H](C)CO)C(=O)c2cccc(NC(=O)Nc3ccccc3)c2O[C@H]1CN(C)Cc1ccncc1 | 9
N#CCCN(CC1CCCO1)C(=S)Nc1ccc(F)cc1 (configuration not stated) | 17
C[C@@H]1CN([C@@H](C)CO)C(=O)c2cccc(NC(=O)Nc3cccc4ccccc34)c2O[C@H]1CN(C)C(=O)Nc1ccc2c(c1)OCO2 | 66
COc1ccc(S(=O)(=O)Nc2ccc3c(c2)CC(=O)N([C@@H](C)CO)C[C@H](C)[C@@H](CN(C)Cc2ccccc2)O3)cc1 | 24
COc1ccc(S(=O)(=O)Nc2ccc3c(c2)C(=O)N([C@H](C)CO)C[C@H](C)[C@@H](CN(C)C(=O)Nc2ccc(F)cc2)OCCCC[C@@H](C)O3)cc1 | 22
C[C@H](CO)N1C[C@H](C)[C@@H](CN(C)CC2CC2)Oc2c(NC(=O)CCCCCC(=O)Nc3ccccc3N)cccc2C1=O | 121*
CCc1ccc(CCC(=O)Nc2ccc(C(=O)O)cc2)o1 | 23
S=c1nc(C23CC4CC(CC(C4)C2)C3)[nH][nH]1 | -1
CC(Oc1ccc(Br)cc1)C(=O)NCc1cccnc1 (configuration not stated) | 1
COc1ccc(NC(=O)Nc2ccc3c(c2)C(=O)N([C@H](C)CO)C[C@H](C)[C@H](CN(C)Cc2ccc(C(F)(F)F)cc2)O3)cc1 | 35
COc1cccc(NC(=O)CN(C)S(=O)(=O)c2ccc3ccccc3c2)c1 | -13
COc1ccc(S(=O)(=O)Nc2ccc3c(c2)CC(=O)N([C@H](C)CO)C[C@H](C)[C@H](CN(C)Cc2ccc(C(=O)Nc4ccccc4N)cc2)O3)cc1 | 140*
The list goes on:
SMILES | NOMO-1 viab
COc1ccc(-c2cc(-c3cccs3)nc(SC(C(=O)O)c3ccccc3)c2C#N)cc1 (configuration not stated) | 92*
Cc1ccc(S(=O)(=O)Nc2ccc3c(c2)CC(=O)N([C@H](C)CO)C[C@H](C)[C@H](CN(C)C(=O)Nc2ccc(C(F)(F)F)cc2)O3)cc1 | 14
CSc1ccc(C2C(C(=O)c3sc(C)nc3C)C(=O)C(=O)N2Cc2cccnc2)cc1 (configuration not stated) | -21
COc1ccc(NC(=O)Nc2ccc3c(c2)CC(=O)N([C@H](C)CO)C[C@H](C)[C@H](CN(C)S(=O)(=O)c2ccccc2)O3)cc1 | 58
O=C(CCSc1nnc(-c2cccc([N+](=O)[O-])c2)o1)Nc1ccc(Br)cc1 | 32
CCOC(=O)CN(c1c(C)cccc1C)S(C)(=O)=O | 9
C[C@@H]1CN([C@H](C)CO)C(=O)c2cccc(NS(=O)(=O)c3ccccc3)c2O[C@@H]1CN(C)S(=O)(=O)c1ccc(F)cc1 | 32
C[C@H]1CN([C@@H](C)CO)C(=O)c2cc(NC(=O)CCN3CCOCC3)ccc2O[C@H]1CN(C)Cc1ccc(Oc2ccccc2)cc1 | -6
Cc1noc(C)c1S(=O)(=O)Nc1ccc2c(c1)C(=O)N([C@H](C)CO)C[C@H](C)[C@H](CN(C)C(=O)NC(C)C)O2 | -8
O=C(COc1ccccc1)Nc1cccc(-c2nc3c(ccc4ccccc43)o2)c1 | 18
Cc1ccccc1NC(=O)CCC(=O)O | 4
Cc1ccc(OCC(=O)Nc2ccc(Cl)cc2)c(-n2nc3ccccc3n2)c1 | 53
C[C@@H]1CN([C@@H](C)CO)C(=O)c2cccc(NC(=O)Nc3ccccc3)c2O[C@@H]1CN(C)C(=O)Nc1ccc2c(c1)OCO2 | 2
C[C@@H]1CN([C@@H](C)CO)C(=O)c2cc(NC(=O)Nc3ccccc3)ccc2O[C@@H]1CN(C)Cc1ccc(Oc2ccccc2)cc1 | 117*
CCn1c2c(c3cc(Br)ccc31)CCCC2=O | 24
CC(NS(=O)(=O)c1ccc(Cl)cc1)C(=O)Nc1cccc(Br)c1 (configuration not stated) | 1
C[C@@H]1CN([C@H](C)CO)C(=O)c2cccc(NC(=O)C3CCCCC3)c2O[C@@H]1CN(C)CC1CCCCC1 | 3
COCCNc1nc2c(c(=O)n(C)c(=O)n2C)n1Cc1ccc(Cl)cc1Cl | 15
C[C@@H]1CN([C@H](C)CO)C(=O)c2cc(NC(=O)Cc3cn(C)c4ccccc34)ccc2O[C@H]1CN(C)C(=O)Nc1ccc(F)cc1 | 9
COc1cc2c(cc1NC(=O)c1nc3ncccn3n1)oc1ccccc12 | 6

Reprinted from the results shown (14 entries):
SMILES | NOMO-1 viab
C[C@@H]1CN([C@H](C)CO)C(=O)c2cccc(NS(=O)(=O)c3ccccc3)c2O[C@@H]1CN(C)S(=O)(=O)c1ccc(F)cc1 | 32
C[C@H]1CN([C@@H](C)CO)C(=O)c2cc(NC(=O)CCN3CCOCC3)ccc2O[C@H]1CN(C)Cc1ccc(Oc2ccccc2)cc1 | -6
Cc1noc(C)c1S(=O)(=O)Nc1ccc2c(c1)C(=O)N([C@H](C)CO)C[C@H](C)[C@H](CN(C)C(=O)NC(C)C)O2 | -8
O=C(COc1ccccc1)Nc1cccc(-c2nc3c(ccc4ccccc43)o2)c1 | 18
Cc1ccccc1NC(=O)CCC(=O)O | 4
Cc1ccc(OCC(=O)Nc2ccc(Cl)cc2)c(-n2nc3ccccc3n2)c1 | 53
C[C@@H]1CN([C@@H](C)CO)C(=O)c2cccc(NC(=O)Nc3ccccc3)c2O[C@@H]1CN(C)C(=O)Nc1ccc2c(c1)OCO2 | 2
C[C@@H]1CN([C@@H](C)CO)C(=O)c2cc(NC(=O)Nc3ccccc3)ccc2O[C@@H]1CN(C)Cc1ccc(Oc2ccccc2)cc1 | 117*
CCn1c2c(c3cc(Br)ccc31)CCCC2=O | 24
CC(NS(=O)(=O)c1ccc(Cl)cc1)C(=O)Nc1cccc(Br)c1 (configuration not stated) | 1
C[C@@H]1CN([C@H](C)CO)C(=O)c2cccc(NC(=O)C3CCCCC3)c2O[C@@H]1CN(C)CC1CCCCC1 | 3
COCCNc1nc2c(c(=O)n(C)c(=O)n2C)n1Cc1ccc(Cl)cc1Cl | 15
C[C@@H]1CN([C@H](C)CO)C(=O)c2cc(NC(=O)Cc3cn(C)c4ccccc34)ccc2O[C@H]1CN(C)C(=O)Nc1ccc(F)cc1 | 9
COc1cc2c(cc1NC(=O)c1nc3ncccn3n1)oc1ccccc12 | 6

(further entries)
SMILES | NOMO-1 viab
Cc1cc(Cc2ccc(Cl)cc2)c(=O)[nH]n1 | 25
C[C@H]1CN([C@@H](C)CO)C(=O)c2cc(NS(=O)(=O)c3ccc(Cl)cc3)ccc2O[C@@H]1CN(C)C(=O)Nc1ccc2c(c1)OCO2 | -3
CNC[C@H]1Oc2ccc(NC(=O)CCCN(C)C)cc2C(=O)N([C@@H](C)CO)C[C@H]1C | 5
C[C@@H]1CN([C@@H](C)CO)C(=O)c2cccc(NC(=O)c3cnccn3)c2O[C@H]1CN(C)S(=O)(=O)c1cccs1 | 9
CC(C)NC(=O)N(C)C[C@H]1Oc2ccc(NC(=O)CCCCCC(=O)Nc3ccccc3N)cc2C(=O)N([C@@H](C)CO)C[C@H]1C | -36
C[C@H]1CN([C@@H](C)CO)C(=O)c2cccc(NC(=O)C3CC3)c2O[C@@H]1CN(C)C(=O)Nc1ccc(F)cc1 | -5

An excerpt, so the mix of outcomes need not match the whole.
